Bioassay records (PubChem)
Vaccinia mCherry = vaccinia inhibition (mCherry reporter); Vaccinia virus mCherry reporter infection, fluorescence; about a quarter of the inactives have no number; Potency, µM (series often up to 36.5 µM), inactives show top-dose activity change, negative = inhibition, usual class: inhibitors; 310,000 compounds, 0.63% hits; AID 720579; active = well fitted inhibition curve with a large enough effect; inconclusive = small, poorly fitted or top-dose-only effect; inactive = no such curve, though single readings can be large or run the other way; tested in A549 cells; also: nearly all actives have a fitted effect of over 35% in size; inactives centre near -10
Vaccinia Venus = vaccinia inhibition (Venus reporter); Vaccinia virus Venus reporter expression, fluorescence; Potency, µM (series often up to 36.5 µM), inactives show at the top dose activity change, negative = inhibition, actives largely listed as inhibitors; 330,000 compounds, 0.46% hits; AID 720580; active means well fitted inhibition curve with a large enough effect; inconclusive means small, poorly fitted or top-dose-only effect; inactive means no such curve, though single readings can be large or run the other way; tested in A549 cells; also: nearly all actives have a fitted effect of over 30% in size; inactives centre near -10
Active calls of the source: *; i = inactive; u = inconclusive; x = no result given; & = joins results of further samples; [ ] = dose if it differs, or a comment. % is scaled to controls: 0 for no effect and ±100 for the full control effect; potency is read from the fitted curve at half-maximal effect.

SMILES	Vaccinia mCherry	Vaccinia Venus
COc1ccc(CNC(=O)CN(c2ccccc2)S(=O)(=O)N(C)C)cc1	-2.2%&-11.1%	-3.8%&9.1%
CC(=O)N1c2c(cc(Br)cc2S(=O)(=O)NCc2ccccc2Cl)CC1C (stereo not given)	-5.4%	6.9%
CCN(CC(=O)NCc1ccc(Cl)cc1)C(=O)CSc1ccc(Br)cc1	-18.0%	u
O=C(CSC1=Nc2ccccc2C2=NC(CCC(=O)NC3CCCCC3)C(=O)N12)Nc1cccc(Cl)c1 (stereo not given)	-6.3%	-3.9%
COCCNc1nc(NCc2ccc(NC(C)=O)cc2)c2sccc2n1	-18.1%	-19.5%
Cc1ccc(N(C(C)C(=O)Nc2cc(Cl)ccc2Oc2ccccc2)S(C)(=O)=O)cc1 (stereo not given)	u	u
CS(=O)(=O)c1ccc(Cl)c(NC(=O)CSC(=S)N2CCCC2)c1	-13.1%	-12.2%
O=C1C(=Cc2cccc(Cl)c2)Cc2ccccc21	i	3.3%
O=C1OCCN1C(=O)[C@H]1[C@H](c2ccc([N+](=O)[O-])cc2)C(c2cccc(Cl)c2)=NN1c1ccc(Br)cc1	-13.3%	-17.1%
O=C(CCC(=O)N1CCOCC1)c1ccc(F)cc1	i	-4.7%
O=C(NCCCCc1ccccc1)C1CC(c2ccccc2[N+](=O)[O-])=NO1 (stereo not given)	-2.9%	-10.7%
CN1CCN(c2ncc3c(n2)CCN(Cc2ccccc2Cl)C3)CC1	-14.5%	-25.7%
Cc1cc(=O)oc2c3c(cc(OCC(=O)Nc4cccnc4)c12)OC(C)(C)CC3	8.6%	-3.4%
CCc1ccc(NC(=O)Cn2cnc3nc4c(cc3c2=O)CCCC4)cc1	-4.9%	5.6%
COc1ccc(OCCCN2CCCCCC2)cc1	-4.4%	u
O=C(Nn1c(SCc2cccc([N+](=O)[O-])c2)nc2ccccc2c1=O)c1ccccc1	i	-6.9%
COc1ccc(CCNC(=O)Cn2cc(S(=O)(=O)Cc3ccccc3Cl)c3ccccc32)cc1OC	-19.2%	-9.9%
CCOC(=O)N1CCc2c(sc(NCc3ccc(N(C)C)cc3)c2C(=O)Nc2ccc(OC)cc2)C1	-3.5%	-9.3%
O=C(Nc1ccc(F)cc1)C1CCN(C(=O)NCc2ccccc2)CC1	-2.0%	-11.3%
O=C(c1ccc(N2CCCC2=O)cc1)N1CCOCC1	-15.6%	-6.2%

Structures from the list above that contain a carbonyl joined to an NH by a bond outside any ring, in the order listed:
SMILES	Vaccinia mCherry	Vaccinia Venus
COc1ccc(CNC(=O)CN(c2ccccc2)S(=O)(=O)N(C)C)cc1	-2.2%&-11.1%	-3.8%&9.1%
CCN(CC(=O)NCc1ccc(Cl)cc1)C(=O)CSc1ccc(Br)cc1	-18.0%	u
O=C(CSC1=Nc2ccccc2C2=NC(CCC(=O)NC3CCCCC3)C(=O)N12)Nc1cccc(Cl)c1 (stereo not given)	-6.3%	-3.9%
COCCNc1nc(NCc2ccc(NC(C)=O)cc2)c2sccc2n1	-18.1%	-19.5%
Cc1ccc(N(C(C)C(=O)Nc2cc(Cl)ccc2Oc2ccccc2)S(C)(=O)=O)cc1 (stereo not given)	u	u
CS(=O)(=O)c1ccc(Cl)c(NC(=O)CSC(=S)N2CCCC2)c1	-13.1%	-12.2%
O=C(NCCCCc1ccccc1)C1CC(c2ccccc2[N+](=O)[O-])=NO1 (stereo not given)	-2.9%	-10.7%
Cc1cc(=O)oc2c3c(cc(OCC(=O)Nc4cccnc4)c12)OC(C)(C)CC3	8.6%	-3.4%
CCc1ccc(NC(=O)Cn2cnc3nc4c(cc3c2=O)CCCC4)cc1	-4.9%	5.6%
O=C(Nn1c(SCc2cccc([N+](=O)[O-])c2)nc2ccccc2c1=O)c1ccccc1	i	-6.9%
COc1ccc(CCNC(=O)Cn2cc(S(=O)(=O)Cc3ccccc3Cl)c3ccccc32)cc1OC	-19.2%	-9.9%
CCOC(=O)N1CCc2c(sc(NCc3ccc(N(C)C)cc3)c2C(=O)Nc2ccc(OC)cc2)C1	-3.5%	-9.3%
O=C(Nc1ccc(F)cc1)C1CCN(C(=O)NCc2ccccc2)CC1	-2.0%	-11.3%

New compounds follow:
SMILES	Vaccinia mCherry	Vaccinia Venus
COc1cccc2c1C(=O)c1c(O)c3c(c(O)c1C2=O)CC(O)(C(C)=NNC(=O)c1ccc(Cl)c(Cl)c1)CC3OC1CC(N)C(O)C(C)O1 (stereo not given)	319.1%[activator]	x
CCc1ccc(C(=O)NN(C(=O)c2ccc(CC)cc2)C(C)(C)C)cc1	-21.9%	-9.3%
CCN1CCN(Cc2ccc(NC(=O)c3ccc(C)c(NC(=O)c4ccno4)c3)cc2C(F)(F)F)CC1	-1.6%	u
Cc1ccc(C(=O)N(Cc2nc3ccccc3c(=O)[nH]2)C2CCCC2)cc1	-10.7%	-2.5%
O=C1N(c2ccc(Cl)cc2)C(c2ccc(Cl)cc2)N2CCCN12 (stereo not given)	-16.9%	-4.2%
CC(=O)Nc1ccc(OCc2cn(CC(=O)c3ccc(O)cc3)nn2)cc1	-11.0%	-15.7%
CC(C)Cc1nnc(NC(=O)CN2C(=O)c3ccccc3C2=O)s1	1.5%	-9.1%
O=C(O)CN1C(=O)C(=O)N(Cc2cccc(F)c2)C1=O	-11.3%	9.6%
Cc1ccc(NC(=O)CNC(=O)c2cccs2)nc1	i	-10.4%
CCCN1Cc2cccc(C(=O)Nc3ccc(C(C)=O)cc3)c2C1=O	-3.3%	-13.1%
Cc1ccc(C(c2sc3nc(-c4ccco4)nn3c2O)N2CCN(c3ccc(F)cc3)CC2)cc1 (stereo not given)	-0.6%	2.6%
CC(C)(C)n1nnnc1C(c1cccc(C#N)c1)N1CCCCCC1 (stereo not given)	-10.2%	-9.0%
COCCN(C(=O)CSc1nnc(-c2cccc(C)c2)n1C)c1c(N)n(Cc2ccccc2)c(=O)[nH]c1=O	-5.1%	-12.7%
CC1(C(=O)NC2CCCC2)CCC(=O)N1CCCn1ccnc1 (stereo not given)	8.9%	4.1%
CCc1nc2c(OCc3ccc(Cl)cc3)cccn2c1N(C)C(=O)c1ccco1	u	u
C(=C\c1nnc(-c2cccs2)o1)/c1ccccc1	-9.5%	-5.1%
O=c1ccn(Cc2ccccc2Cl)cc1	-17.6%	-5.2%
COc1ccccc1CNC(=O)C(=O)NCC1OCCN1S(=O)(=O)c1ccc2c(c1)OCCO2 (stereo not given)	i	-17.3%
COc1ccc(Cc2c(-c3ccc(OC)c(OC)c3)nc3c(C)cc(Br)cn23)c(C)c1	i	1.3%
CN(CC(=O)NCc1ccccn1)S(=O)(=O)c1ccccc1	-22.8%	-10.8%

Sorted by formula weight (lowest first): part of the list above
SMILES	Vaccinia mCherry	Vaccinia Venus
COc1ccc(OCCCN2CCCCCC2)cc1	-4.4%	u
CCCN1Cc2cccc(C(=O)Nc3ccc(C(C)=O)cc3)c2C1=O	-3.3%	-13.1%
CC(C)(C)n1nnnc1C(c1cccc(C#N)c1)N1CCCCCC1 (stereo not given)	-10.2%	-9.0%
CCc1ccc(NC(=O)Cn2cnc3nc4c(cc3c2=O)CCCC4)cc1	-4.9%	5.6%
COc1ccc(CCNC(=O)Cn2cc(S(=O)(=O)Cc3ccccc3Cl)c3ccccc32)cc1OC	-19.2%	-9.9%

(cont.)
SMILES	Vaccinia mCherry	Vaccinia Venus
COCc1c(C(=O)N/N=C(/C)c2ccc(OCc3ccccc3)cc2)nnn1-c1nonc1N	-12.5%	-13.8%
CC(C)NC(=O)c1ccc(Sc2ccccc2)c([N+](=O)[O-])c1	x	-22.7%
CC[C@@]1(C(=O)OC)N[C@H](CN(C)S(=O)(=O)c2ccc(C(C)(C)C)cc2)[C@@H]2C(=O)N(Cc3ccccc3)C(=O)[C@@H]21	i	-9.1%
CC[C@H](C)C(C(=O)N1CCN(C(=O)OC(C)(C)C)CC1)n1cc(C(CO)NC(=O)OC(C)(C)C)nn1 (stereo not given in full)	10.0%	2.2%
CC(CCN1CCN=C1N(C)C)c1ccccc1 (stereo not given)	i	-7.4%
CC(C)CNC(=O)CC(=O)N/N=C/c1cccs1	-12.3%	0.6%
Cc1ccccc1OCc1nnc(SC(C)C(=O)O)n1-c1ccccc1 (stereo not given)	i	2.3%
COc1ccc(OC)c(C(c2nnnn2CC2CCCO2)N2CCN(C)CC2)c1 (stereo not given)	x	-16.7%
Cc1ccccc1CSCc1nc2ccccc2[nH]1	-15.0%	-21.7%
Cc1cnc(NC(=O)COc2cccc3c2OC(C)(C)C3)s1	7.94µM*	1.3%
CC(C)(C)c1ccc(/C=N/NC(=O)c2ccccn2)cc1	i	-12.1%
COc1ccc(OCC(=O)NNC(=O)c2cccc(S(=O)(=O)N(C)C)c2)cc1	i	-16.6%
CC(=NOC(=O)C1CCCCC1)c1nccs1	i	-5.7%
O=C(Cc1ccc(S(=O)(=O)N2CCCC2)s1)N1CCN(c2ccccc2)CC1	4.6%	-5.5%
O=C(OCc1ccc([N+](=O)[O-])cc1)c1ccccn1	10.3%	1.6%
COc1ccc([N+](=O)[O-])cc1NC(=O)C(C)Sc1ccc(C)cc1 (stereo not given)	i	-4.7%
CCCCCC(=O)N/N=C/c1cc(Br)c(O)c(OC)c1	-14.9%	-11.2%
CCN1C(=O)[C@H]2[C@@H](c3ccc(-c4ccc(F)cc4)c(OC)c3)N[C@@](Cc3ccccc3)(C(=O)OC)[C@H]2C1=O	u	u
Cc1cccc2nc(-c3ccco3)c(Nc3ccc4c(c3)OCO4)n12	u	-0.3%&-7.2%
COc1ccc(C(=O)NCC(=O)Nc2ccccc2)cc1OC	x	-1.7%
C=CCNC(=O)N1CCCC(C(=O)c2cccc(OC(C)C)c2)C1 (stereo not given)	-1.1%	-12.7%
Fc1ccc(/C=C\c2nccc3c2[nH]c2ccccc23)cc1	u	-25.0%
CNC(=O)NC(=O)Cn1nc2n(c1=O)-c1ccccc1SC2	-0.4%	16.8%
CSCCC(NC(=O)c1ccco1)C(=O)OCC(=O)Nc1ncc(Cl)c(C)c1Cl (stereo not given)	x	-11.3%
O=C(NC1CCCCC1)c1nn2c(C(F)(F)F)cc(-c3ccco3)nc2c1Br	x	-17.7%
COc1ccc([C@H]2CC(=O)C=C(c3cccc(NC(C)=O)c3)C2)cc1	i	-17.7%
Cc1cc(NC(=O)COc2ccc(Cl)cc2Cl)n(-c2ccccc2)n1	x	-20.0%
O=C(CN1C(=O)NC2(CCCC2)C1=O)NCc1ccc(F)cc1	-17.2%	-8.1%
O=C(O)CCCC[C@@H]1SC[C@@H]2NC(=O)N[C@@H]21	3.5%	9.4%
CCn1c(=O)c2c(nc3n2CCCN3CCc2ccccc2)n(C)c1=O	x	7.8%
O=C(Nc1ccc2c(c1)OCO2)C1CCN(C(=O)c2ccc([N+](=O)[O-])cc2)CC1	-13.2%	-7.5%
CC(C)=NOc1nc(N2CCOCC2)nc(N2CCOCC2)n1	-15.5%	-4.9%
O=C(NC1CC1)c1ccc(Cn2c(SCc3ccc(F)cc3)nc3cccnc32)cc1	-12.2%	-11.8%
Cc1nc2ccccc2c(=O)n1NCc1cccs1	-14.3%	-10.4%
COc1cccc(C(=O)NCCCc2ccccc2)c1OC	-3.1%	-4.3%
CN(CCC#N)c1ccc(C=C(C#N)c2cccc(C(F)(F)F)c2)cc1	u	u
Cc1ccc(OCC(=O)NNC(=O)C(=O)NC(C)(C)C)cc1	-13.9%	-17.3%
Cc1ccc2nc(SCC(=O)N3CCC(Cc4ccccc4)CC3)nc(=O)n2c1	-8.2%	-19.3%
COc1ccc(Br)cc1C1CC(=O)N2CN(C)CSC2=C1C#N (stereo not given)	-14.2%	6.3%
Cc1ccc(CNC(=O)C(CC(C)C)N2Cc3ccccc3C2=O)cc1 (stereo not given)	i	-8.2%
Cc1scc(C(=O)NNC(=S)NCc2ccccc2)c1C	0.7%	1.7%
O=C(CN1CCOCC1)Nc1ccccc1F	-13.6%	-2.8%
C[C@@H]1COC(=O)[C@@H](Cc2ccc(F)cc2)C/C=C\C[C@H](CC(=O)N(CCO)Cc2ccccc2)C(=O)N1	-8.8%	u
Cc1ccc(-n2c(=O)c3c4c(sc3n(Cc3ccccc3C)c2=O)CCC4)cc1C	-9.0%	-19.0%
COc1ccc2c(c1OC)C[N+]1([O-])CCc3cc4c(cc3C1C2)OCO4 (stereo not given)	i	1.7%
Cc1cc(CNC(=O)c2cnn(-c3ncc4c(n3)-c3ccccc3CCC4)c2C2CC2)on1	i	-8.1%
CC(=O)C1=C(O)C(=O)N(c2cccc(C(=O)O)c2)C1c1ccc(F)cc1 (stereo not given)	i	-21.3%
O=C(c1cc2ccccc2cc1O)N1CCN(c2ccccn2)CC1	u	3.8%
Cc1ccc(Cl)cc1N1CCN(CCCNC(=O)C2COc3ccccc3C2)CC1 (stereo not given)	-23.5%	-22.7%
CCOC(=O)c1ccc(CN(Cc2ccc(F)cc2)S(=O)(=O)c2ccc(F)cc2)cc1	-6.4%	-6.5%
